# GALR2 agonist: activates the human galanin receptor 2. AID 803. activation, %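 (tested at 5 µM)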. hit rate 0.48% among 140,000. GALR2-expressing cells, agonist activation read-out;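 active = above mean plus 3 SD of all compounds, about 5% in these data, not always enough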;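 note: 0% = vehicle buffer wells and 100% = reference agonist at full effect; tested in CHO reporter cells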
# Insulin prom inh: TRM-6 insulin promoter activity inhibition; TRM-6 cells (human fetal islet line), insulin promoter-eGFP reporter, imaging; reporter expression induced with tamoxifen; inhibition, % at 2 µM; hit rate 0.9% among 130,000; AID 1273;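 active = inhibition above the mean plus 3 SD, with well images judged a real hit on visual review, cut at about 60% in these data, passing the limit was not always enough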
# RGS16-Gao HTS: RGS16-Galphao interaction regulator (human). bead-based flow cytometry RGS16-Galphao binding, fluorescence; actives lie on both sides. hit rate 0.38% among 220,000. O15492+P09471. binding response (% of control), % at 10 µM;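 active = below 25% or above 175%, edge rows of some plates excepted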;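 note: Galphao activated by GDP with aluminum fluoride before binding; 100% = wells without compound and 0% = beads without RGS; some results beyond the cut were filed as inactive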
# HSV replic up: HSV replication enhancement. hit rate 0.005% among 220,000. AID 1956. HSV replication augmentation in cells, fold increase. maximum fold increase;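 active = peak rise of 1.5-fold or more in the series; tested in PC3 cells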;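 note: first round at 10 µM; read as green reporter fluorescence; hits show the peak of a series up to 25 µM; 1 = signal of infected wells without compound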
# PKD1 inh: PKD1 (human) kinase inhibition. AID 797. PKD1 kinase fluorescence polarization assay. inhibition, %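 (about 10 µM by stock and volumes)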. Q15139. hit rate 0.056% among 200,000;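 active = inhibition of 50% or more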;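 note: controls were vehicle for no effect and a reference inhibitor for full effect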
# Target sequence (Q15139 whole entry, looked up): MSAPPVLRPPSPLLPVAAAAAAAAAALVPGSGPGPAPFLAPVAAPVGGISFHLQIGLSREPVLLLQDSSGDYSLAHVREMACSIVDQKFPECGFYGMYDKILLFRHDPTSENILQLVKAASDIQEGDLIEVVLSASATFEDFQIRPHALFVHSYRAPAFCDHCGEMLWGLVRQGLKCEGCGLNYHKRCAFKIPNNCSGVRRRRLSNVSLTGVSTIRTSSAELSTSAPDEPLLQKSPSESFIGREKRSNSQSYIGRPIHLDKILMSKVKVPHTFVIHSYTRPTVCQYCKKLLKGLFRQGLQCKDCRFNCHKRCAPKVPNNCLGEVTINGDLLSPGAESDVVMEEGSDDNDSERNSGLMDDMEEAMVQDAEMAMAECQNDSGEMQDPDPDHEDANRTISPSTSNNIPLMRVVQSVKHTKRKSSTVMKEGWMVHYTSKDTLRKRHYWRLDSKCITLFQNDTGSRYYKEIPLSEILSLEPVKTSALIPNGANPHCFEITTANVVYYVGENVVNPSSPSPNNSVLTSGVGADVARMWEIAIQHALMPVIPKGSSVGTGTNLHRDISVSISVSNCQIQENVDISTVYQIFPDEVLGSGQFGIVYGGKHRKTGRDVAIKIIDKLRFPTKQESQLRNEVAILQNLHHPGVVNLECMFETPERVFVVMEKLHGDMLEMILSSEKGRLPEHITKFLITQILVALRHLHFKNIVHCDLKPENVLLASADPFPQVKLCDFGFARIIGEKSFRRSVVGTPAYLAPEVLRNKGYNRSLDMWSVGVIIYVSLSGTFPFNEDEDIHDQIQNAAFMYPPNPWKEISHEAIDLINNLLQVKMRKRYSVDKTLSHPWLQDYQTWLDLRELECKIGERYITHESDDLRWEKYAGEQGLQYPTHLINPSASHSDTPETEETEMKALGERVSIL
# Insulin prom inh cell count: further read-out of Insulin prom inh, marked with its call; normalized cell count, %; measured here: cell count, toxicity; reference of the scale not given here;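 cells exposed to compound for 48 h; stained nuclei by imaging scaled within each plate; lower means fewer cells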
# HSV replic up primary fold: also measured in HSV replic up; calls as there; fold increase; compound at 10 µM; measured here: primary screen fold increase 10 uM; tested in PC3 cells;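 GFP signal in the first replicate; 1 = infected wells without compound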
# * = called active by the depositor; i = inactive; · = no result given.
# Fields – Insulin prom inh cell count	PKD1 inh	HSV replic up primary fold	GALR2 agonist	HSV replic up	Insulin prom inh	RGS16-Gao HTS
1) c1csc(-c2noc(CN3CCN4CCCC4C3)n2)c1 (configuration not stated)
  ·	-3.0	0.96	·	i	·	126.0
2) COc1ccc(-c2nnn(CC(=O)N(c3cccc(O)c3)C(C)C(=O)NC3CCCC3)n2)cc1OC (configuration not stated)
  ·	0.5	1.04	·	i	·	95.4
3) CCn1c(CC(=O)Nc2ccc(C)c(Cl)c2)nnc1SCCOc1ccc(OC)cc1
  47.2	-6.2	0.94	-1.3	i	-68.6	116.3
4) CN(C(=O)CSc1nnc(-c2ccc(F)cc2)c2ccccc12)C1CCS(=O)(=O)C1 (configuration not stated)
  ·	-7.3	0.82	·	i	·	94.9
5) COc1cccc(S(=O)(=O)c2nc(C)c3c(n2)CCC3)c1
  ·	-0.5	0.91	·	i	·	102.3
6) O=C(NNC(=O)[C@@H]1CCCC[C@@H]1C(=O)O)Nc1ccccc1
  110.5	-1.7	1	-1.4	i	9.4	91.0
7) Cc1cc(NC(=O)CCCn2cc([N+](=O)[O-])cn2)n(Cc2ccc(F)cc2)n1
  ·	-2.5	1.01	·	i	·	95.4
8) Cc1c(C(=O)Oc2cccc3cccnc23)oc2ccccc12
  ·	7.9	0.72	·	i	·	103.4
9) CSc1nc(Sc2cccc(Cl)c2)c2ccccc2n1
  136.7	0.2	0.95	-2.8	i	35.5	75.6
10) CC1(C)Cc2ccccc2C(N/N=C/c2ccc(Cl)cc2)=N1
  ·	6.1	1.2	-0.9	i	·	109.5
11) Cc1ccc(N(C)C(=O)N2CCN(S(=O)(=O)c3ccc(C)c(C)c3)CC2)cc1
  81.2	-1.8	0.84	-1.7	i	-8.3	103.0
12) Cc1ccc(Cl)c(NC(=O)CN2CCNC(=O)C2)c1Cl
  ·	4.1	0.98	·	i	·	100.0
13) CCCCNC(=S)Nc1ccc(Cl)cc1
  155.2	0.2	1.09	-0.4	i	24.1	99.4
14) CCOC(=O)N1CCN(CC(O)COc2ccc(C)cc2C(C)(C)C)CC1 (configuration not stated)
  107.9	-11.8	0.92	0.2	i	7.4	99.6
15) O=C(Nc1ccccc1OC(=O)c1ccc(Cl)cc1)c1ccc(Cl)cc1
  ·	-1.7	0.86	0.3	i	·	94.1
16) CCc1cc2c(=O)nc3n(c2s1)Cc1ccccc1/C3=C(/O)c1ccc(F)cc1
  71.2	-0.6	·	7.1	·	-37.5	92.8
17) CCNS(=O)(=O)c1ccc2c(c1)NCC2
  ·	-7.6	1.05	-1.3	i	·	59.2
18) CC(C)COc1ccc(C(=O)N/C(=C\c2cccc([N+](=O)[O-])c2)C(=O)OC(C)C)cc1
  110.9	-8.2	0.89	-1.7	i	13.8	106.8
19) CCc1c(C)sc(NC(=O)C2CCCO2)c1C#N (configuration not stated)
  120.1	-3.8	0.94	-1.9	i	-43.3	31.6
20) COc1ccc(CCNC(=O)c2c(O)c3cccc4c3n(c2=O)CC4)cc1
  140.9	-16.8	0.94	-0.6	i	40.0	100.0
21) N#Cc1ccc(C(=O)Nc2cc(S(=O)(=O)N3CCCC3)ccc2OCC(F)(F)F)cc1
  119.4	-9.9	0.86	-1.4	i	40.5	101.1
22) O=C(COc1ccccc1)NCC(=O)NC1=NCCS1
  ·	2.7	0.89	-1.7	i	·	102.5
23) Cc1ccc(N(C(=O)C2COc3ccccc3O2)C(C(=O)NC2CCCCC2)c2cn(C)nc2C)cc1 (configuration not stated)
  65.4	7.4	0.94	-1.4	i	-20.0	91.2
24) Cc1cc(C)n2nc(C(=O)Nc3cccc(S(=O)(=O)N(C)c4ccccc4)c3)nc2n1
  ·	·	1.02	·	i	·	103.8
25) CCOC(=O)c1[nH]c(C)c(C(=O)OCC(=O)NC(=O)NC(C)(C)C)c1C
  ·	12.0	0.76	-3.1	i	·	99.6
26) OC(CN1C2=NCCCN2c2ccccc21)c1ccc2c(c1)OCO2 (configuration not stated)
  ·	-2.3	0.97	-2.4	i	·	105.1
27) CC(C)(C)c1ccc(S(=O)(=O)NCC(=O)N2CCN(C(=O)c3ccco3)CC2)cc1
  87.7	-2.0	1.07	-0.1	i	26.7	95.4
28) CCNC(=O)CSc1nc2ccccc2c(=O)n1-c1cccc(OC)c1
  ·	-0.2	1.05	·	i	·	99.7
29) O=C(CN1CCN(c2ccc(Cl)cc2)CC1)Nc1ccc(F)c(F)c1
  121.5	-13.7	0.9	0.3	i	50.0	99.3
30) COc1ccc(C)cc1S(=O)(=O)N(C)CC(=O)NC1CC1
  114.2	4.4	1.1	-2.3	i	-11.4	94.3
31) Cc1cc(C)nc(SCc2nc3ncccn3c2Br)n1
  120.5	0.0	0.82	0.1	i	-43.2	93.6
32) Cc1ccc(NC(=O)CCC(=O)NNC(=O)c2cccs2)c(C)c1
  135.7	-8.5	0.9	-1.4	i	4.2	111.0
33) COc1ccc(C(=O)O/N=C(/c2cccs2)C(C)(C)C)cc1
  ·	·	1.1	·	i	·	90.5
34) CCCCOc1ccc(CN=C(N)N)cc1Cl
  ·	·	0.8	·	i	·	100.4
35) CCOCCCNC(=O)C(NC(=O)Cc1cccs1)c1ccc(C)cc1 (configuration not stated)
  ·	-1.0	1	·	i	·	103.2
36) CCOc1ccc(-n2nc3c(=S)[nH]nc(C)c3c2C)cc1
  127.7	-8.2	0.93	-2.1	i	15.4	103.2
37) CCC1(C)Cc2c(sc3nn[nH]c(=O)c23)CO1 (configuration not stated)
  142.6	2.2	0.76	-3.5	i	22.9	97.2
38) Cc1ccc(-n2c(O)c(/C=N/Nc3ccc(S(=O)(=O)N4CCOCC4)cc3[N+](=O)[O-])c3ccccc3c2=O)c(C)c1
  96.3	-14.9	0.88	-1.1	i	4.8	47.8
39) COc1ccc(C)cc1-n1nnnc1SCC(=O)Nc1cccnc1Cl
  62.1	-9.9	1.03	-2.3	i	19.2	111.7
40) CCCOc1ccccc1-c1nc2c([nH]1)c(=O)[nH]c(=O)n2C
  76.1	1.6	0.9	0.1	i	42.4	99.2
41) O=C(Nc1nnc(C2CC2)s1)c1ccc(Cl)c(S(=O)(=O)N2CCc3ccccc3C2)c1
  121.4*	-3.1	1.02	-0.1	i	60.0*	103.3
42) CCOP(=O)(O)c1ccccc1OCCOc1ccccc1P(=O)(O)OCC
  129.9	-0.3	0.92	-3.1	i	-22.6	101.0
43) O=C(/C=C/c1ccco1)N(Cc1cccc(Br)c1)C1CCS(=O)(=O)C1 (configuration not stated)
  ·	·	0.93	·	i	·	97.7
44) CCCCN1C(=O)C(NC(C)=O)c2ccccc21 (configuration not stated)
  75.7	-15.8	0.82	-1.5	i	21.0	99.5
45) Cc1ccc(S(=O)(=O)c2nc(NC3CCS(=O)(=O)C3)sc2Cl)cc1 (configuration not stated)
  132.9	3.2	0.94	-2.3	i	10.8	97.7
46) CC(C)N(C(=O)CSc1nc2ccccc2n1-c1ccccc1)C(C)C
  151.5	-6.7	0.95	-0.5	i	-63.9	109.0
47) CC(C)CCn1c(SCCN2CCOCC2)nc2c1c(=O)[nH]c(=O)n2C
  ·	-7.7	1	-0.2	i	·	60.6
48) CCN1CCN(C(=S)c2ccc(SC)cc2)CC1
  71.0	-1.9	0.93	-0.7	i	-5.7	89.8
49) CCCC1=C(C(=O)OCC)C(c2ccccc2OC)NC(=O)N1 (configuration not stated)
  ·	4.6	0.93	-1.2	i	·	117.2
50) Cc1ccc(NC(=O)c2cccs2)cc1NC(=O)c1ccco1
  93.2	14.8	0.89	-3.0	i	0.0	99.2
51) O=C(CN1CCN(c2ccccc2F)CC1)c1ccc2c(c1)OCO2
  131.3	-5.0	0.89	-2.4	i	48.8	104.3
52) COc1cccc(OC)c1C(=O)Nc1c(C)n(C)n(-c2ccccc2)c1=O
  ·	-4.9	0.96	-1.4	i	·	109.3
53) Cc1ccc(OCC(=O)NC2CC(C)(C)NC(C)(C)C2)cc1C
  41.1	0.7	1.02	·	i	40.7	109.0
54) N/C(Cn1cncn1)=N\OC(=O)c1ccc(Cl)cc1
  ·	6.4	1.01	·	i	·	87.3
55) Cc1cccc(NC(=S)NNC(=O)c2cc3c(s2)CCC(C)C3)c1C (configuration not stated)
  82.1	-4.7	0.91	-1.5	i	-29.7	78.5
56) O=C(NCc1ccc2c(c1)OCO2)C1CCCN(S(=O)(=O)c2cccc3nonc23)C1 (configuration not stated)
  60.6	-1.0	0.84	5.8	i	-3.2	115.7
57) O=C(COc1ccc(Br)cc1Cl)NC1CCCCC1
  137.5	-9.3	·	-0.8	·	-58.3	106.6
58) O=C(CSc1nc2ccc(Cl)cc2[nH]1)c1c[nH]c2ccccc12
  ·	-3.6	1.07	·	i	·	101.2
59) CN(C)C(=S)Nc1nc2ccccc2s1
  ·	9.7	1.19	·	i	·	85.8
60) CCOC(=O)c1[nH]c2ccc(F)cc2c1N=C(C)N(CC)CC
  ·	-10.9	0.81	3.6	i	·	92.1

# Not a retest: an excerpt of the list.
# Fields – Insulin prom inh cell count	PKD1 inh	HSV replic up primary fold	GALR2 agonist	HSV replic up	Insulin prom inh	RGS16-Gao HTS
42) CCOP(=O)(O)c1ccccc1OCCOc1ccccc1P(=O)(O)OCC
  129.9	-0.3	0.92	-3.1	i	-22.6	101.0
43) O=C(/C=C/c1ccco1)N(Cc1cccc(Br)c1)C1CCS(=O)(=O)C1 (configuration not stated)
  ·	·	0.93	·	i	·	97.7
44) CCCCN1C(=O)C(NC(C)=O)c2ccccc21 (configuration not stated)
  75.7	-15.8	0.82	-1.5	i	21.0	99.5
45) Cc1ccc(S(=O)(=O)c2nc(NC3CCS(=O)(=O)C3)sc2Cl)cc1 (configuration not stated)
  132.9	3.2	0.94	-2.3	i	10.8	97.7
46) CC(C)N(C(=O)CSc1nc2ccccc2n1-c1ccccc1)C(C)C
  151.5	-6.7	0.95	-0.5	i	-63.9	109.0
47) CC(C)CCn1c(SCCN2CCOCC2)nc2c1c(=O)[nH]c(=O)n2C
  ·	-7.7	1	-0.2	i	·	60.6
48) CCN1CCN(C(=S)c2ccc(SC)cc2)CC1
  71.0	-1.9	0.93	-0.7	i	-5.7	89.8
49) CCCC1=C(C(=O)OCC)C(c2ccccc2OC)NC(=O)N1 (configuration not stated)
  ·	4.6	0.93	-1.2	i	·	117.2
50) Cc1ccc(NC(=O)c2cccs2)cc1NC(=O)c1ccco1
  93.2	14.8	0.89	-3.0	i	0.0	99.2
51) O=C(CN1CCN(c2ccccc2F)CC1)c1ccc2c(c1)OCO2
  131.3	-5.0	0.89	-2.4	i	48.8	104.3
52) COc1cccc(OC)c1C(=O)Nc1c(C)n(C)n(-c2ccccc2)c1=O
  ·	-4.9	0.96	-1.4	i	·	109.3
53) Cc1ccc(OCC(=O)NC2CC(C)(C)NC(C)(C)C2)cc1C
  41.1	0.7	1.02	·	i	40.7	109.0
54) N/C(Cn1cncn1)=N\OC(=O)c1ccc(Cl)cc1
  ·	6.4	1.01	·	i	·	87.3
55) Cc1cccc(NC(=S)NNC(=O)c2cc3c(s2)CCC(C)C3)c1C (configuration not stated)
  82.1	-4.7	0.91	-1.5	i	-29.7	78.5
56) O=C(NCc1ccc2c(c1)OCO2)C1CCCN(S(=O)(=O)c2cccc3nonc23)C1 (configuration not stated)
  60.6	-1.0	0.84	5.8	i	-3.2	115.7
57) O=C(COc1ccc(Br)cc1Cl)NC1CCCCC1
  137.5	-9.3	·	-0.8	·	-58.3	106.6

# More compounds:
# Fields – Insulin prom inh cell count	PKD1 inh	HSV replic up primary fold	GALR2 agonist	HSV replic up	Insulin prom inh	RGS16-Gao HTS
61) CCOc1ccccc1N1CCN(CC(=O)Nc2nnc(CC)s2)CC1
  37.6	-3.4	0.93	-0.8	i	-357.1	66.4
62) O=C(NCc1ccco1)c1cc([N+](=O)[O-])ccc1Cl
  ·	-4.6	0.98	·	i	·	102.5
63) COc1cc(O)c(C(CCN2CCCCC2)c2ccc(N(C)C)cc2)c(OC)c1 (configuration not stated)
  ·	·	0.87	·	i	·	106.2
64) CC(=O)Nc1ccc(S(=O)(=O)N2CCN(CC3CC4C=CC3C4)CC2)cc1 (configuration not stated)
  103.6	-7.4	0.99	·	i	66.7	109.4
65) CCOc1cc(/C=N/Nc2ccc(C(=O)O)cc2)ccc1OC(=O)c1ccccc1C
  ·	·	1	·	i	·	101.4
66) COc1ccc(S(=O)(=O)N(Cc2nc3ccccc3c(=O)[nH]2)C2CCCC2)cc1
  130.0	-41.0	0.967	-3.3	i	-86.7	92.8
67) CC(C)Sc1oc(-c2ccco2)nc1S(=O)(=O)c1ccccc1
  198.8	-4.6	0.83	-4.5	i	0.0	104.1
68) COc1ccc(CN(C)Cc2nc(Cc3cccc(F)c3)no2)c2cccnc12
  ·	-6.2	0.96	·	i	·	110.5
